Bioassay records (PubChem BioAssay)
mIAP block – mouse IAP inhibition. AID 2806. purified mouse IAP, CDP-Star luminescence, 30 min. 330,000 tested, 0.2% active. inhibition, % at 10 µM;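 active = inhibition of at least 40% at 10 µM in the primary screen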;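 also: plate controls were DMSO with enzyme for no effect and no enzyme wells for full effect; values of inactives mirror those of a sister screen read the other way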
hIAP activ – increases human intestinal alkaline phosphatase activity; 330,000 tested, 0.16% active; purified human IAP, CDP-Star luminescence, 30 min; hits give high values; 1 = vehicle-only enzyme, 0 = enzyme-free background; P09923; activation factor at 10 µM;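 active = activation factor of the enzyme at least 2-fold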; also: the source names both 10 and 20 µM as test concentration; values of inactives mirror those of a sister screen read the other way
Target sequence (P09923 whole entry, looked up): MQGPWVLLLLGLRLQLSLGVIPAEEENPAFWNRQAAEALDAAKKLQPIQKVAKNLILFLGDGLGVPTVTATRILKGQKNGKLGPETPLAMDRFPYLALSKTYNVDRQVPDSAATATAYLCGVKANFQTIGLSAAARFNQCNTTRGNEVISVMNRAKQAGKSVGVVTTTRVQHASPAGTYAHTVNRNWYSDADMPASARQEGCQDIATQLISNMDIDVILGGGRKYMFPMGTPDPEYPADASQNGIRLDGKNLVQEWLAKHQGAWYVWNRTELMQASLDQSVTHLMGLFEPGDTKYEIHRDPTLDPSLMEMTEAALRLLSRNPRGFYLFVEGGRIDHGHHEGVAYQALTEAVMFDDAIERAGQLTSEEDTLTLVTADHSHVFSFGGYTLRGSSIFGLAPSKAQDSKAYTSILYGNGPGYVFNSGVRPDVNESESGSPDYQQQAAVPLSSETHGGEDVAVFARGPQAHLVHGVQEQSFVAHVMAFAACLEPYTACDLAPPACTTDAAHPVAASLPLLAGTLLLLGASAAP
TIM10 inh – growth inhibitors of TIM10 yeast strain. 330,000 tested, 1.4% active. AID 463195. S. cerevisiae TIM10 strain growth, BacTiter-Glo luminescence, 24 h. inhibition, % at 10 µM;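 active = inhibition of 40% or more at the single tested concentration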;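 also: wild-type TIM10 isogenic control strain grown at permissive 25 °C; 0% = DMSO yeast wells and 100% = minimal medium wells without yeast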
ATG4B inh – blocks human ATG4B protease cleavage of LC3 substrate; Q9Y4P1; ATG4B cleavage of LC3-PLA2, NBD-HPC fluorescence, 1 h; inhibition, % at 8.33 µM; 340,000 tested, 0.51% active; AID 504462; in the data active = inhibition above about 40%
Target sequence (Q9Y4P1 whole entry, looked up): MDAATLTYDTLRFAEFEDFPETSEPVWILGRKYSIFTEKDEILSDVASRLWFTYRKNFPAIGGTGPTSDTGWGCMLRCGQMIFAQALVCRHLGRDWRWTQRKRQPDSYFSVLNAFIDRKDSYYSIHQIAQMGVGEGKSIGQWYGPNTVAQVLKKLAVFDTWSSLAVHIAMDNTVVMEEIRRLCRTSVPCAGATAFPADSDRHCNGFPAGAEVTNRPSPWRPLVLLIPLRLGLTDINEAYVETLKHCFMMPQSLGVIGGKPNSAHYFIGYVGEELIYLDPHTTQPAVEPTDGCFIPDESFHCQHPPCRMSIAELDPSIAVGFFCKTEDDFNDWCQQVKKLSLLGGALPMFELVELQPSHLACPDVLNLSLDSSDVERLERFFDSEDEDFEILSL
hIAP block – human IAP inhibition; P09923; purified IAP, CDP-Star luminescence, 30 min; inhibition, % at 10 µM; 330,000 tested, 0.12% active; AID 2544;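 active = inhibition reaching a set limit with compound at 10 µM in the primary screen, cut at about 35% in these data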;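 also: plate controls were DMSO wells with enzyme for no effect and no-enzyme buffer wells for full effect; values of inactives mirror those of a sister screen read the other way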
tim10-1 inh – growth inhibitors of tim10-1 mutant yeast. S. cerevisiae tim10-1 ts strain growth, BacTiter-Glo, 24 h. inhibition, % at 20 µM. 330,000 tested, 2.2% active. AID 463190;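 active = inhibition of at least 40%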;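 also: mutant grown at 25 °C; 0% = DMSO wells with yeast and 100% = wells holding no yeast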
mIAP activ – increases mouse intestinal alkaline phosphatase activity | AID 2805 | activation factor at 10 µM | 330,000 tested, 0.24% active | muIAP, CDP-Star luminescence, 30 min; hits give high values; 1 = vehicle-only enzyme signal, 0 = enzyme-free wells;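 active = activation factor of at least 2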; also: the source names both 10 and 20 µM as test concentration; values of inactives mirror those of a sister screen read the other way
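Assay system: mouse IAP enzyme / Compound: DMSO-dissolved test compounds / Timing: 30 min, room temperature / Measured by: luminescence from enzymatic CDP-Star hydrolysis / Control set: DMSO-only wells, enzyme-free buffer wells as negative control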
NLRP3 yeast inh – inhibitors of NALP3 inflammasome in yeast. 330,000 tested, 0.39% active. Yeast reconstituted NLRP3/ASC/caspase-1, beta-gal luminescence, 24 h. AID 2825. inhibition, % at 10 µM;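 active = inhibition of 50% or more; inactive = inhibition below 50%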;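 also: plate controls were induced DMSO wells for no effect and uninduced yeast grown without galactose for full effect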
Starred values were filed as active, the others as inactive; x = no result given; & = joins results of further samples.

SMILES	mIAP block	hIAP activ	TIM10 inh	ATG4B inh	hIAP block	tim10-1 inh	mIAP activ	NLRP3 yeast inh
CC1(C)Cc2c(C#N)c(N)sc(=S)c2CO1	20	0.84	-2	1	16	1	0.81	5
CCCn1c(CCC(=O)O)ccc1-c1ccc(OC)cc1	14	0.95	7	-3	5	9	0.86	15
N#CCCn1c2ccccc2c2nc3ccccc3nc21	11	1.1	-1	-6	-15	9	0.89	23
CC1(C)Cc2c(C#N)c(N3CCCC3)nc(-c3ccco3)c2CO1	-1	1.1	11	x	-8	21	1	6
O=C(NC1CC1)c1cc2c(s1)-c1ccccc1OC2	10	0.89	18	2	11	16	0.9	60*
Oc1ccccc1/C=N/c1c(-c2ccco2)nc2ccccn12	11	1.2	15	-16	-19	18	0.89	-1
O=c1c2ccccc2nc2ccc(NCc3ccco3)nn12	10	1.1	1	-2	-10	12	0.9	5
Cc1ccc2c(c1)c1c3n2CCN=C3CCC1	-1	0.97	14	-11	3	5	1	3
CN1CCN(c2cc3c(c4c2[nH]c2ccccc24)C(=O)CC(C)(C)C3)CC1	9	1	18	-3	0	37	0.91	16
C=CCN1C(=O)/C(=C2/Sc3ccccc3N2CCCS(=O)(=O)O)SC1=S	13	1.2	10	27	-17	8	0.87	18
CCOC(=O)CNc1c(-c2ccc(Cl)cc2)nc2cnccn12	-2	0.99	12	-3	1	25	1	7
O=C(NC1CCCCC1)c1cnn2c(C(F)(F)F)cc(-c3ccco3)nc12	8	1	-35	4	-1	-19	0.92	14
COc1ccc(-c2ccc(-c3noc(-c4ccccc4OC)n3)c(OC)n2)cc1	5	1.2	-5	5	-15	-5	0.95	-4
CCc1c(C)c2cc(Cl)c(O)c(CN(CC)CC)c2oc1=O	-12	0.95	4	2	5	12	1.1	-2
Cc1ccc(-c2cc(-c3ccccc3)c(C#N)c(N)n2)o1	11	1	6	11	-5	50*	0.89	26
CCOC(=O)c1sc2c(c1C)C(c1cccs1)C1=C(CCCC1=O)N2 (stereo not drawn)	-1	1	9	-6	-1	23	1	13
CN1CCc2c(sc3c2C(=O)NC(c2cccc(OC(=O)c4cccs4)c2)N3)C1 (stereo not drawn)	-12	0.72	2	0	28	23	1.1	16
Cc1cccn2c(=O)c3cc(C#N)c(=NC(=O)c4cccnc4)n(CC4CCCO4)c3nc12 (stereo not drawn)	3	1.2	-3	-7	-25	16	0.97	10
N=c1oc2c3c4c(cc2cc1C(=O)Nc1ccccc1)CCCN4CCC3	-1	1	5	-8	-3	11	1	-4
CCCCN(C(=O)NC(=O)C1=C(N2CCOCC2)/C(=C/c2ccccc2)CC1)S(C)(=O)=O	-3	1.2	17	4	-15	28	1	18

Taken from above:
Value for CCOC(=O)CNc1c(-c2ccc(Cl)cc2)nc2cnccn12 under ATG4B inh: -3
Value for N=c1oc2c3c4c(cc2cc1C(=O)Nc1ccccc1)CCCN4CCC3 under mIAP block: -1
Value for O=c1c2ccccc2nc2ccc(NCc3ccco3)nn12 under TIM10 inh: 1
Value for CCCn1c(CCC(=O)O)ccc1-c1ccc(OC)cc1 under NLRP3 yeast inh: 15

(list continues)
SMILES	mIAP block	hIAP activ	TIM10 inh	ATG4B inh	hIAP block	tim10-1 inh	mIAP activ	NLRP3 yeast inh
CCN1c2ccccc2-c2nc3ccccc3n2C1c1cccnc1 (stereo not drawn)	-9	1.1	14	4	-7	1	1.1	0
Cc1cc(C)n2nc3nc4c(cc3c2n1)CCCC4	-2	0.83	9	0	17	28	1	8
Nc1nc(N)c2nc(-c3ccccc3)c(N)nc2n1	-8	1.2	-67	2	-17	-67	1.1	16
COC(=O)c1sc2cnccc2c1N	-8	0.95	-11	-10	5	4	1.1	20
COc1ccc(C2C(C#N)=C(C)NC3=C2C(=O)CC(C)(C)C3)c(OC)c1 (stereo not drawn)	-6	0.94	16	-3	6	8	1.1	-9
COC(=O)c1c(N)n(-c2ccc(NC(C)=O)cc2)c2nc3ccccc3nc12	-4	1.1	-9	6	-6	8	1	13
COc1cc2c(cc1OC)C(c1cc3cc(OC)c(OC)cc3[nH]c1=O)N(C(=O)C1CC1)CC2 (stereo not drawn)	3	0.97	22	-3	3	4	0.97	15
Cc1ccc2nc(NCCO)nc(-c3ccccc3)c2c1	-5	0.92	19	-4	8	0	1.1	7
CCCOc1ccc(N)cc1N	11	1.1	22	-4	-9	50*	0.89	23
C=CCn1c(N)c(C(=O)OCC(C)C)c2nc3ccccc3nc21	-4	1.1	17	-3	-11	34	1	9
O=c1c(-c2ccc(O)cc2)coc2cc(O)ccc12	-10	1.2	10	-2	-20	-8	1.1	3
COCCOC(=O)C1=C(C)NC2=C(C(=O)CC(C)(C)C2)C1c1cc2c(cc1Br)OCO2 (stereo not drawn)	-4	0.84	12	-18	16	14	1	5
Cn1c(C(C#N)/C(=N\S(=O)(=O)c2cccs2)c2ccccc2)nc2ccccc21 (stereo not drawn)	-7	0.97	4	-7	3	2	1.1	-1
O=C(c1cc2c(=O)n3ccccc3nc2s1)N1CCOCC1	7	1	-14	2	-3	3	0.93	-11
O=C(NC12CC3CC(CC(C3)C1)C2)c1cc2nc(-c3ccco3)cc(C(F)(F)F)n2n1	-4	1	-15	6	-2	-1	1	13
Cc1cccc2cc3c(NC(=O)CC(C)C)nn(C)c3nc12	-16	1.1	21	1	-8	13	1.2	6
COc1ccc2[nH]c(=O)c(CN(Cc3ccccc3OC)Cc3nnnn3CC3CCCO3)cc2c1 (stereo not drawn)	-5	1.1	0	-11	-9	-6	1	22
CN1CCc2c(sc3c2C(=O)NC(c2ccc(-c4cccc(Cl)c4)o2)N3)C1 (stereo not drawn)	10	0.83	18	-13	17	5	0.9	22
Cc1ccc(C)c(S(=O)(=O)C(C#N)c2nc3ccccc3nc2N2CCOCC2)c1 (stereo not drawn)	-6	1	22	-7	-2	27	1.1	-2
COc1ccc2ccccc2c1C(O)c1nccn1C (stereo not drawn)	-1	1	2	-26	-2	11	1	16
CCC(Oc1ccc2c(c1)C(=O)CC(C)(C)O2)C(=O)NCCN1CCCCCC1 (stereo not drawn)	6	0.95	16	-12	5	31	0.94	11
COc1ccc(C(=O)N2CCN(c3nc4cc(C)ccc4cc3C#N)CC2)c(OC)c1	7	0.94	26	-26	6	27	0.93	15
CCOC(=O)c1cc2c(=O)n3ccccc3nc2n(C(C)C)c1=NC(=O)c1ccncc1	2	0.96	-5	-4	4	-14	0.98	5
CCOC(=O)c1cc2c(=O)n3ccccc3nc2n(CCCOC)c1=NC(=O)c1cccnc1	1	0.93	16	x	7	17	0.99	-1
Cc1cc(C(F)(F)F)c2c(N)c(C(=O)Nc3cc(C)on3)sc2n1	0	1.1	-23	-16	-8	11	1	10
CCC(=O)c1cc2c(cc1NC(=O)c1cccs1)OCCO2	7	1.1	13	-19	-11	13	0.93	12
CCOC(=O)c1cc2c(=O)n3cccc(C)c3nc2n(CC2CCCO2)c1=NC(C)=O (stereo not drawn)	4	0.98	11	2&-4	2	9	0.96	26
CCOC(=O)Cc1c(C)c2ccc(N(CC)CC)cc2oc1=O	-43	1.2	16	-4	-16	30	1.4	13
COc1ccc(-c2cc(C(F)F)n3ncc(C(=O)NCC4CCCO4)c3n2)cc1 (stereo not drawn)	-6	1.1	45*	-4	-13	23	1.1	20
CC(C)NCC(O)COc1cccc2ccccc12 (stereo not drawn)	0	0.97	1	0	3	0	1	22
CCCCn1nc(NC(=O)c2cccs2)c2cc3cc(OC)ccc3nc21	-12	0.98	20	4	2	23	1.1	14
CC(C)Cn1nc(NC(=O)C2CCCO2)c2cc3ccccc3nc21 (stereo not drawn)	-22	1	-8	-1	-1	2	1.2	10
COc1ccccc1C1C=C(c2ccc(Cl)cc2)Nc2nc(N3C(=O)CCC3=O)nn21 (stereo not drawn)	9	0.94	17	0	6	17	0.91	6
COc1cc(NC(=O)c2cccs2)c(OC)cc1NC(=O)c1ccco1	4	1.1	-1	6	-12	-2	0.96	15
COc1ccc(S(=O)(=O)C(C#N)c2nc3ccccc3nc2N2CCCCC2)cc1 (stereo not drawn)	13	0.94	22	14	6	31	0.87	24
CC(=O)Nc1nn(C)c2nc3cc(C)ccc3cc12	4	0.82	8	-9	18	1	0.96	15
Nc1cccc2c1C(=O)N(C(=O)c1ccc(S(=O)(=O)N3CCCCCC3)cc1)C2=O	-2	1	5	3	-1	13	1	0
CS(=O)(=O)c1sc2nc(-c3cccs3)cc(-c3ccccc3)c2c1N	12	0.82	34	24	18	18	0.88	1
CCOC(=O)c1cc2c(=O)n3cccc(C)c3nc2n(CCCOC)c1=NC(=O)c1cccnc1	-2	1.1	12	-11	-6	5	1	2
O=c1c(O)c(-c2ccc3c(c2)OCO3)oc2ccccc12	6	1.1	7	-3	-5	9	0.94	32

Structures from the list above with a Cl atom (4):
SMILES	mIAP block	hIAP activ	TIM10 inh	ATG4B inh	hIAP block	tim10-1 inh	mIAP activ	NLRP3 yeast inh
CCOC(=O)CNc1c(-c2ccc(Cl)cc2)nc2cnccn12	-2	0.99	12	-3	1	25	1	7
CCc1c(C)c2cc(Cl)c(O)c(CN(CC)CC)c2oc1=O	-12	0.95	4	2	5	12	1.1	-2
CN1CCc2c(sc3c2C(=O)NC(c2ccc(-c4cccc(Cl)c4)o2)N3)C1 (stereo not drawn)	10	0.83	18	-13	17	5	0.9	22
COc1ccccc1C1C=C(c2ccc(Cl)cc2)Nc2nc(N3C(=O)CCC3=O)nn21 (stereo not drawn)	9	0.94	17	0	6	17	0.91	6

Further records follow.
SMILES	mIAP block	hIAP activ	TIM10 inh	ATG4B inh	hIAP block	tim10-1 inh	mIAP activ	NLRP3 yeast inh
COC(=O)C1=CN(CC2CCCO2)C=C(C(=O)OC)C1c1ccsc1 (stereo not drawn)	3	0.88	18	-7	12	10	0.97	-17
Cc1cn([C@H]2C[C@H](N=[N+]=[N-])[C@@H](CO)O2)c(=O)[nH]c1=O	6	0.97	1	3	3	-15	0.94	6
Cc1ccc(C(=O)/C=C/Nc2ccccc2C(N)=O)o1	3	0.93	-7	-19	7	18	0.97	20
COCCN(CCOC)Cc1c(O)ccc2c3c(c(=O)oc12)CCC3	0	1.1	-15	0	-7	-8	1	-5
CCCOc1ccccc1C1C(C(=O)OC)=CN(C(C)C)C=C1C(=O)OC	-33	0.71	4	2	29	18	1.3	-9
Cn1c(C(=O)N2CCc3ccccc3C2)cc2c(=O)n3ccccc3nc21	-12	0.98	11	9	2	35	1.1	-6
Cc1ncc([N+](=O)[O-])n1CCO	-10	0.94	6	2	6	-10	1.1	1
CNc1nc2sc3c(c2c(=O)n1C)CC(C)(C)SC3	-2	1.1	26	-20	-12	32	1	1
Oc1ccc(Br)cc1-c1nc2cnccn2c1NC1CCCC1	8	1.1	26	-10	-5	29	0.92	8
COc1ccc(CCNc2oc(COc3ccccc3Cl)nc2C#N)cc1OC	-30	0.88	14	2	12	3	1.3	18
COCCN1C=C2C(=O)C(C)(OC(=O)CCC(=O)OC)C(=O)C=C2C=C1C1CC1 (stereo not drawn)	11	1	4	-1	-1	-18	0.89	-3
Cc1cccn2c(=O)c3cc(C(=O)NCCN4CCOCC4)c(=N)n(CCc4ccccc4)c3nc12	19	0.87	4	-10	13	-4	0.81	2
Cc1ccc(Cl)cc1N1CCN(C(=O)CN2C(=O)c3cccc4cccc2c34)CC1	2	0.89	14	-10	11	13	0.98	14

Structures listed above that bear a hit mark in NLRP3 yeast inh.
compound,mIAP block,hIAP activ,ATG4B inh,hIAP block,mIAP activ,NLRP3 yeast inh
O=C(NC1CC1)c1cc2c(s1)-c1ccccc1OC2,10,0.89,2,11,0.9,60*

Some entries already given with just ATG4B inh.
SMILES	ATG4B inh
Oc1ccc(Br)cc1-c1nc2cnccn2c1NC1CCCC1	-10
COc1ccc(CCNc2oc(COc3ccccc3Cl)nc2C#N)cc1OC	2

This is a subset; the hit share may differ from the screen's.
